Autofluor counter: counter-screen for toxin protease inhibitors: compound fluorescence; compound autofluorescence counterscreen, microsphere flow cytometry; active compounds read high; 360,000 tested, 3.1% active; fluorescence intensity (no concentration beside the values);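 active means at least 3 SD above the mean of all compounds, about 16000 in these data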;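 further: 100 nL of 1 mM stock went into each well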
Numbers without * were called inactive.

SMILES	Autofluor counter
Cc1c(P(=O)(c2ccccc2)c2ccccc2)c2ccccc2n1C	3795
CC(C)(C)n1nnnc1C(c1cc2ccccc2o1)N(CCC#N)Cc1ccccc1 (stereo unspecified)	6311
COc1ccc(CC(Cc2ccc(OC)c(OC)c2)NC=O)cc1OC	3429
Cc1cc(C)n2nc(C(=O)OCC(=O)Nc3ccc(Cl)cc3)nc2n1	3813
CC(C)(C)n1nnnc1C(c1ccnc2ccccc12)N1CCC2(CC1)C(=O)NCN2c1ccccc1 (stereo unspecified)	6000
NC(Cc1ccccc1)c1csc(Nc2cc(Oc3ccccc3)ncn2)n1 (stereo unspecified)	3762
CC(C)NC(=O)C1(C)CCCN1Cc1ccccc1C#N (stereo unspecified)	4017
O=C(CC[C@H]1O[C@@H](n2cnc3c(NC(=O)c4ccccc4)ncnc32)[C@H](O)[C@@H]1O)NCc1nc2ccccc2[nH]1	5294
COc1ccc(-c2ccc(C(=O)Nc3ccc(OC)nc3)c3occc23)c(C)c1	3467
COc1ccccc1Cc1c(-c2ccc(OC)c(OC)c2)nc2c(Cl)cc(C(F)(F)F)cn12	6486
O=C(COC(=O)/C=C/c1ccccc1)NCc1ccco1	3637
Cc1cc(C)c(NS(=O)(=O)c2ccc3c(c2)oc(=O)n3C)c(C)c1	4366
C=CCn1c(Cn2c(-c3cnccn3)nc3ccccc32)nc2ccccc21	4334
Cc1cc(Br)cn2c(Cc3ccsc3)c(-c3ccc(C#N)cc3)nc12	4977
CCOC=C1SC(=S)N(c2ccccc2OC)C1=O	3735

Two of these compounds in a different format.
SMILES,Autofluor counter
CC(C)(C)n1nnnc1C(c1ccnc2ccccc12)N1CCC2(CC1)C(=O)NCN2c1ccccc1 (stereo unspecified),6000
NC(Cc1ccccc1)c1csc(Nc2cc(Oc3ccccc3)ncn2)n1 (stereo unspecified),3762

Following part:
SMILES	Autofluor counter
CCCc1nc2ccc(C)cn2c1Cc1cccc(F)c1	5532
CN(C(=O)COC(=O)c1ccc(S(=O)(=O)N2CCCCCC2)cc1)c1ccccc1	3528
Cc1ccc(OCC(=O)Nc2ccc3c(c2)nc(CCN2CCCC2)n3C)cc1	9336
C#CCN(C[C@H]1[C@H](OC(=O)NC2CC2)[C@H](OC(=O)NC2CC2)C[C@@H](C(=O)OC)[C@H]1C(=O)OC)S(=O)(=O)c1ccc(C)cc1	4140
CC(C)=CCC[C@H](C)C[C@@H]1Cc2[nH][nH]c(=O)c2[C@@H](c2ccc(F)cc2)O1	5999
COc1ccc(NC(=O)N(C)C[C@@H]2OCc3ccccc3-c3c(n(C)c4ccccc34)C(=O)N([C@H](C)CO)C[C@H]2C)c(OC)c1	3496
CSc1ccc(CN2CCC2(C)C(=O)NC2CCc3ccccc32)cc1 (stereo unspecified)	3938
O=C(NCCN1CCC(n2c(=O)[nH]c3ccccc32)CC1)c1ccc(OC(F)(F)F)cc1	6089
CCOCCC(=O)Nc1ccc2c(c1)c(=O)n(C)n2C/C=C/c1ccccc1	3463
Cc1ccc(SCc2c(C(=O)N/N=C/c3ccco3)nnn2-c2nonc2N)cc1	3932
Cc1ccc(Cc2c(-c3ccc(C)cc3)nc3ccc(Cl)cn23)cc1	2989
CNc1cncc(-c2ccc(CN(C)C)cc2)n1	3517
CC(C)C(=O)N1CCCC1(C)C(=O)Nc1ccc(-n2cccc2)cc1 (stereo unspecified)	4058
Cc1cnc(C2OCCO2)c2cccc([N+](=O)[O-])c12	2895
COc1cccc(-c2cnc(C(O)c3ccccc3)[nH]2)c1 (stereo unspecified)	3866
O=C(Nc1ccc(F)c(Cl)c1)c1ccc2sc([C@H]3C[C@H](O)[C@@H](CO)O3)nc2c1	3865
OC1CCC(Nc2ccn3nc(-c4cccc(OCc5ccccc5)c4)cc3n2)CC1 (stereo unspecified)	2912
COc1cccc(NC(=O)N(C)C[C@@H]2Oc3cc(Br)ccc3S(=O)(=O)N([C@@H](C)CO)C[C@H]2C)c1	3417
Cn1c(=O)c(=O)n(C)c2cc(S(=O)(=O)CCC(=O)Nc3ccccc3C(F)(F)F)ccc21	3376
COc1ccc(C(O)c2nc(-c3cccc(NC(C)=O)c3)cs2)cc1 (stereo unspecified)	2862
Cc1cc(F)ccc1-c1cc(C(=O)NCc2cccs2)[nH]n1	3726
COc1ccc(C(C#N)CC(=O)c2ccc(OCc3ccccc3)c(OC)c2)cc1OC (stereo unspecified)	3940
NS(=O)(=O)c1ccc(CCNC(=O)CSc2nc3c(sc(=S)n3-c3ccccc3)c(=O)[nH]2)cc1	3496
COc1ccc([C@H]2C[C@H](n3cc(-c4ccc(F)cc4)nn3)[C@@H](O)CN2Cc2cccs2)cc1	4021
Cn1nccc1-c1ccc(C(=O)NCc2ccc(Cl)cc2)c2occc12	3804
Cc1ccc(OC(=O)N(C)C[C@@H]2OCc3cn(nn3)CCCC(=O)N([C@H](C)CO)C[C@H]2C)cc1	3524
Cc1cc(NC(=O)c2cc3cc([N+](=O)[O-])ccc3s2)no1	2916
CC(C)C[C@@H](CN1CCCC1CN1C(=S)NC[C@@H]1Cc1ccccc1)N1C[C@H](Cc2ccc(O)cc2)N(CC2CCCCC2)C1=S (stereo partly specified)	4415
O=C(NCc1cccc(Cl)c1)c1ccc(-n2cncn2)c2ccoc12	3821
C[C@@H]1CN([C@H](C)CO)C(=O)CCCn2cc(nn2)CO[C@H]1CN(C)C(=O)Nc1ccc(-c2cccs2)cc1	4107

4 of these compounds in a different format:
Cc1ccc(Cc2c(-c3ccc(C)cc3)nc3ccc(Cl)cn23)cc1
  Autofluor counter = 2989

CNc1cncc(-c2ccc(CN(C)C)cc2)n1
  Autofluor counter = 3517

CC(C)C(=O)N1CCCC1(C)C(=O)Nc1ccc(-n2cccc2)cc1 (stereo unspecified)
  Autofluor counter = 4058

Cc1cnc(C2OCCO2)c2cccc([N+](=O)[O-])c12
  Autofluor counter = 2895

(list continues)
SMILES	Autofluor counter
CCc1nc2ccc(C(=O)Nc3cccc(OCC(=O)N(C)C)c3)cn2c1N(CCC(C)C)CCN(C)C	3905
COc1cccc(C(=O)NC2CC3CCCC(C2)N3Cc2ccc(F)cc2)c1 (stereo unspecified)	3012
O=C(NCC1CCCCC1)c1[nH]c(C(F)(F)F)nc1-c1ccccc1	4174
CCc1ccc(C(C#N)=CC=Cc2ccccc2)cc1	2790
COc1ccc(OC)c(N(CCN2C(=O)c3ccccc3C2=O)C(=O)C2CCC(=O)C2C)c1 (stereo unspecified)	3739
O=C(NCc1ccccc1C(F)(F)F)c1cccc2c1C(=O)c1ccc(N3CCC(N4CCCCC4)CC3)cc1S2(=O)=O	6813
CCc1nc2c(OCCC3CCCCC3)cccn2c1N(C)C(=O)c1ccco1	3129
CCCc1c(-c2cccc(F)c2)ncn1CCc1ccccc1OC	6200
O=C(NCc1ccc(F)cc1)c1cc(C2CCCN(C(=O)c3ccc4c(c3)CCO4)C2)on1 (stereo unspecified)	3690
COc1ccc(C(O)c2nc(-c3ccc(N(C)C)cc3)cs2)cc1 (stereo unspecified)	3515
O=C(Nc1ccc(-c2nc3ccccc3[nH]2)cc1)C1CCCN(Cc2ccn[nH]2)C1 (stereo unspecified)	3692
Cc1cccc(-n2ncc3c2CCCC3NC(=O)c2ccncc2)c1C (stereo unspecified)	2715
COc1ccccc1CN1CCNCC1	3725
O=C(OCc1ccccc1F)c1cc(S(=O)(=O)N2CCCCC2)ccc1N1CCOCC1	4344
CC(C)COC(=O)N(C)C[C@H]1OCc2cnnn2CCCC(=O)N([C@@H](C)CO)C[C@H]1C	3665

Entries above containing a tert-butyl group:
SMILES	Autofluor counter
CC(C)(C)n1nnnc1C(c1cc2ccccc2o1)N(CCC#N)Cc1ccccc1 (stereo unspecified)	6311
CC(C)(C)n1nnnc1C(c1ccnc2ccccc12)N1CCC2(CC1)C(=O)NCN2c1ccccc1 (stereo unspecified)	6000

(listing goes on)
SMILES	Autofluor counter
Cn1c(=O)c2cc(NC(=S)NC3CCCCC3)ccc2n1C/C=C/c1ccccc1	4086
COc1ccccc1CNC(=O)COC(=O)Cn1cnc2c1c(=O)n(C)c(=O)n2C	3341
CCOC(=O)C1CCN(C(=O)c2ccc3c(=O)n4nc(Nc5ccccc5CC)sc4nc3c2)CC1	3950
CCCCCCCCSC1=CC(=O)C(OC)=C(OC)C1=O	3683
COc1ccccc1-c1cc(NC(C)=O)c2ncc(-c3cccc(C(F)(F)F)c3)n2c1	4040
CCCC(=O)N1CCC1(C)C(=O)NS(=O)(=O)c1cccs1 (stereo unspecified)	3098
CCC(=O)N1CCCC(C)(C(=O)Nc2ccc(OC(F)F)cc2)C1 (stereo unspecified)	3641
NC(=O)c1cccc(-c2ccnc3c2CC(C(=O)NCc2ccc(F)c(F)c2)O3)c1 (stereo unspecified)	2905
O=C1C=CC(=O)N1c1ccc(-c2nc3ccccc3o2)cc1	3452
CCSC1C(=O)N(C)C(SCC)C(=O)N1C (stereo unspecified)	2894
FC(F)(F)Oc1ccccc1C(c1nnnn1C1CCCC1)N1CCN(C/C=C/c2ccccc2)CC1 (stereo unspecified)	6144
CC1(C(=O)NCCc2ccccc2)Cc2c(-c3cccc(C(F)(F)F)c3)ccnc2O1 (stereo unspecified)	2807
O=C(Cc1csc(-c2cccc(F)c2)n1)Nc1cccc(S(=O)(=O)NC2=NCCC2)c1	4017
CC(C)NC(=O)C1(C)Cc2c(-c3ccc(C(N)=O)cc3)ccnc2O1 (stereo unspecified)	3942
CN(C)Cc1csc(NC(=O)Nc2cccc(C(F)(F)F)c2)n1	3837

A stretch taken from the entries so far, for reference:
SMILES	Autofluor counter
O=C(Cc1csc(-c2cccc(F)c2)n1)Nc1cccc(S(=O)(=O)NC2=NCCC2)c1	4017
CC(C)NC(=O)C1(C)Cc2c(-c3ccc(C(N)=O)cc3)ccnc2O1 (stereo unspecified)	3942
CN(C)Cc1csc(NC(=O)Nc2cccc(C(F)(F)F)c2)n1	3837

Remaining list, next part:
SMILES	Autofluor counter
COc1cccc(CNC(=S)Nc2ccc3c(c2)c(=O)n(C)n3Cc2ccccc2)c1	3889
CCN1CCN(C(C(=O)NC2CCCCC2)C2CC2)CC1 (stereo unspecified)	5702
CCCCc1ccc(S(=O)(=O)NC(=O)C2(C)CCN2C(=O)Cc2ccccc2)cc1 (stereo unspecified)	3374
O=C(OCc1cn([C@@H]2CN(C(=O)c3cccs3)[C@@H](c3ccccc3)C[C@H]2O)nn1)c1ccccc1	3504
O=C(CCS(=O)(=O)c1ccc(F)cc1)Nc1nccs1	2969
Cc1c(C)n(CC(O)CSc2ccccc2)c2ccccc12 (stereo unspecified)	5195
Cc1c(N2CCCCC2)[nH]c2ccccc12	3933
Cc1ccc(S(=O)(=O)Nc2ccc(Nc3nccn4c(-c5cccc(OC(F)(F)F)c5)cnc34)cc2)cc1	3932
COc1ccc(-c2cc(C(=O)Nc3ccc(NC(C)=O)cc3)[nH]n2)c(C)c1	2923
Cc1ccccc1-c1cc2nc(NCc3ccncc3)n(C)c(=O)c2s1	3872
CCc1nc2c(OCC(=O)c3ccc(Cl)cc3Cl)cccn2c1N(C=O)Cc1ccc(OC)cc1	3619
Cc1ccccc1S(=O)(=O)NC(=O)C1(C)CCN1C(=O)c1cccc(F)c1 (stereo unspecified)	4239
COc1ccc(C(=O)N2CCC(C)(C(=O)NS(=O)(=O)C3CC3)C2)c(OC)c1 (stereo unspecified)	4019
CCc1nc2ccc(C(=O)NC3CCN(Cc4ccccc4)CC3)cn2c1N(C)CCN1CCOCC1	3526
O=C(Nc1ccc(-c2ccco2)cc1)C1CCCN(Cc2ccco2)C1 (stereo unspecified)	4546
COc1ccccc1NC(=O)C(CC(=O)O)Cc1cc(C)cc(C)c1 (stereo unspecified)	3763
Cc1ccc(Cc2c(-c3ccc(C)cc3)nc3cc(C)ccn23)cc1	6190
CC(=O)Nc1cccc(-c2cc(NC=O)c3ncc(-c4ccc(F)c(Cl)c4)n3c2)c1	4088
CC1(Cc2ccc(OC(F)(F)F)cc2)C(=O)Nc2ccc(S(=O)(=O)NC3CCCCC3)cc21 (stereo unspecified)	3620
O=C1NC[C@@H](CCCCN2C[C@H](Cc3ccccc3)N(CCc3ccc(O)cc3)C(=O)C2=O)N(CCc2ccccc2)C1=O	6119
C[C@H]1CN([C@@H](C)CO)C(=O)CCCn2nncc2CO[C@@H]1CN(C)S(=O)(=O)c1ccc(Oc2ccccc2)nc1	2875
Cn1ccc2c(-c3ccc(C(F)(F)F)cc3)cc3c(c21)C1CCC3O1 (stereo unspecified)	5675
COc1ccc(S(=O)(=O)NCc2cccnc2)c(Cl)c1Cl	3829
CN(Cc1ccc(Cl)c(Cl)c1)C(=O)c1[nH]c(C(F)(F)F)nc1-c1ccccc1	5784
Cc1onc(-c2ccccc2)c1C(=O)OCC(=O)c1ccc(F)cc1	3580
C[C@H](CO)N1C[C@H](C)[C@@H](CN(C)C(=O)CC2CC2)Oc2cc(Br)ccc2S1(=O)=O	3737
CCN(CC)Cc1c(C)[nH]c2ccc(NC(C)=O)cc2c1=O	2812
CCCNC(=O)C1(C)CCCN(Cc2csc3ccccc23)C1 (stereo unspecified)	4093
Cc1ccn2c(=O)c(NC(=O)c3ccc4c(c3)OCO4)c(C)nc2c1	2975
O=C(Nc1c2c(nn1-c1ccccc1)CS(=O)(=O)C2)C1CC1	3843
Cc1ccc(S(=O)(=O)NC(CC(=O)OCc2ccccc2)C(=O)OCc2ccccc2)cc1 (stereo unspecified)	3691
CCC(=O)N1Cc2cc(C(=O)NCCOC)nc(-c3cccc(-c4ccc(C#N)cc4)c3)c2[C@H]1CCO	5655
CCCN(CCC)Cc1cc(=O)oc2cc(C)c(Cl)cc12	4083
O=C1[C@H]2[C@@H](c3ccccc3)N[C@]3(CCCN(CC4CCCCC4)C3=O)[C@H]2C(=O)N1Cc1ccccc1	3827
Nc1ncnn1Cc1ccccc1	3763
COc1cccc(-c2cnc3c(NC=O)cc(-c4ccc(S(C)(=O)=O)cc4)cn23)c1	3581
O=C(Nc1cccc(C(F)(F)F)c1)Nc1ccc2nc([C@@H]3O[C@H](CO)[C@@H](O)[C@H](O)[C@H]3O)[nH]c2c1	5568
CC(C)(C)n1nnnc1C(c1ccccc1)N1CCN(c2ccccc2)CC1 (stereo unspecified)	4680

These rows are one share of the data. The share of hits here may be higher or lower than overall.
